A1 apoptosis 2: compounds inhibiting A1, read as caspase activation; MEF A1-2A-BIM cells, caspase-Glo luminescence, 3 h; percent of clofoctol response, DMSO zero; caspase activation, % (test concentration not listed); 24,000 tested, under 10 active; AID 2465; in the data active means caspase activation above about 5.9%;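 further: wells of about 30 µL received 50 nL stock; the first replicate is given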
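Evaluation: Caspase-3/7 activity from luminescence increase | Assay system: A1-2A-BIM mouse embryonic fibroblasts | Quantity: 2500 MEF cells/well | Medium: RPMI-1640 plus 10% FBS | Detection: Caspase-Glo 3/7 luminescence, 1 h at room temperature | Dosing: 50 nL compound per well, pinned | Timing: Cells settled overnight, compound exposure 3 h at 37 °C, 5% CO2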
Numbers without * were called inactive. The list is partial; count on the stated rates, not on these rows.

SMILES	A1 apoptosis 2
C[C@H](CO)N1C[C@H](C)[C@@H](CN(C)S(=O)(=O)c2ccccc2)Oc2ccc(NC(=O)CCCN(C)C)cc2C1=O	0.9
C[C@H](CO)N1C[C@H](C)[C@@H](CN(C)Cc2ccccc2)Oc2ccc(NC(=O)Nc3ccc(C(F)(F)F)cc3)cc2CC1=O	0.1
C[C@@H]1CN([C@H](C)CO)C(=O)c2cccc(NC(=O)c3ccncc3)c2O[C@@H]1CN(C)C(=O)NC1CCCCC1	-0.1
CNC[C@@H]1Oc2ccc(NC(=O)CCN3CCOCC3)cc2CC(=O)N([C@H](C)CO)C[C@H]1C	0.1
COc1ccc(S(=O)(=O)N(C)C[C@H]2Oc3ccc(NC(=O)Cn4cnnn4)cc3C(=O)N([C@H](C)CO)C[C@@H]2C)cc1	0.4
CCO[C@H]1OC(C(=O)NCc2ccccc2)=C[C@@H](c2ccccc2)[C@@H]1CCCO	0.9
C[C@@H]1CN([C@@H](C)CO)C(=O)c2cc(NC(=O)NC3CCCCC3)ccc2O[C@@H]1CN(C)Cc1ccc(C(=O)O)cc1	0.2
COc1ccc(NC(=O)Nc2ccc3c(c2)C(=O)N([C@@H](C)CO)C[C@@H](C)[C@H](CN(C)Cc2ccc(C(F)(F)F)cc2)OCCCC[C@H](C)O3)cc1	-1.3
C[C@@H]1CN([C@@H](C)CO)C(=O)CCCn2nncc2CO[C@H]1CN(C)C(=O)Cc1ccccc1	0.4
COc1ccc(S(=O)(=O)N(C)C[C@H]2Oc3ccc(NC(=O)Nc4ccccc4)cc3C(=O)N([C@H](C)CO)C[C@H]2C)cc1	-0.5
C[C@H]1CN([C@@H](C)CO)C(=O)c2cccc(NC(=O)c3cnccn3)c2O[C@@H]1CN(C)S(C)(=O)=O	-0.7
C[C@@H]1CN([C@@H](C)CO)C(=O)CCCn2cc(nn2)CO[C@@H]1CN(C)C(=O)OCc1ccccc1	1.5
C[C@@H]1CCCCO[C@H](CN(C)Cc2ccc3c(c2)OCO3)[C@@H](C)CN([C@H](C)CO)C(=O)c2cc(NC(=O)CCC(F)(F)F)ccc2O1	0.9
Cc1noc(C)c1S(=O)(=O)N(C)C[C@@H]1Oc2ccc(NC(=O)Nc3ccccc3)cc2CC(=O)N([C@@H](C)CO)C[C@H]1C	0.8
C[C@@H]1CN([C@@H](C)CO)C(=O)Cc2cc(NS(=O)(=O)c3ccccc3)ccc2O[C@H]1CN(C)S(=O)(=O)c1ccc(Cl)cc1	-0.3
CNC[C@H]1Oc2ccc(NS(=O)(=O)c3cn(C)cn3)cc2CC(=O)N([C@@H](C)CO)C[C@@H]1C	2.3
Cc1ccc(S(=O)(=O)N(C)C[C@H]2OCCCC[C@H](C)Oc3ccc(NC(=O)Nc4ccccc4)cc3C(=O)N([C@@H](C)CO)C[C@@H]2C)cc1	-0.4
COc1ccc(S(=O)(=O)Nc2ccc3c(c2)C(=O)N([C@@H](C)CO)C[C@H](C)[C@H](CN(C)C(=O)CCCN(C)C)OCCCC[C@H](C)O3)cc1	-0.8
C[C@H]1CN([C@@H](C)CO)C(=O)Cc2cc(NS(=O)(=O)c3ccc(F)cc3)ccc2O[C@H]1CN(C)S(=O)(=O)c1cn(C)cn1	-0.6
C[C@H](CO)N1C[C@H](C)[C@H](CN(C)Cc2ccc(C(F)(F)F)cc2)Oc2ccc(NC(=O)Nc3ccc(C(F)(F)F)cc3)cc2CC1=O	6.6*
C[C@H]1CN([C@@H](C)CO)C(=O)c2cccc(NS(=O)(=O)c3ccccc3)c2O[C@@H]1CN(C)Cc1ccncc1	-0.4
C[C@@H]1CN([C@H](C)CO)C(=O)CCCn2cc(nn2)CO[C@@H]1CN(C)Cc1ccc(-c2ccccc2)cc1	0.0
Cc1ccc(S(=O)(=O)Nc2ccc3c(c2)C(=O)N([C@H](C)CO)C[C@H](C)[C@H](CN(C)Cc2ccc4c(c2)OCO4)OCCCC[C@H](C)O3)cc1	-0.6
COc1ccc(S(=O)(=O)Nc2ccc3c(c2)C(=O)N([C@H](C)CO)C[C@@H](C)[C@@H](CN(C)Cc2ccc(C(=O)O)cc2)O3)cc1	-0.5
C[C@H]1CN([C@@H](C)CO)C(=O)c2cc(NS(C)(=O)=O)ccc2O[C@H]1CN(C)S(=O)(=O)c1cn(C)cn1	0.7
CNC[C@H]1Oc2c(NC(=O)Nc3c(C)noc3C)cccc2C(=O)N([C@@H](C)CO)C[C@@H]1C	2.3
COc1ccc(NC(=O)N(C)C[C@@H]2Oc3ccc(NS(=O)(=O)c4ccc(F)cc4)cc3CC(=O)N([C@@H](C)CO)C[C@H]2C)cc1	0.2
CC(C)NC(=O)Nc1ccc2c(c1)C(=O)N([C@H](C)CO)C[C@@H](C)[C@H](CN(C)S(=O)(=O)c1ccc(F)cc1)O2	0.3
COc1ccc(CN(C)C[C@H]2Oc3ccc(NC(=O)NC(C)C)cc3C(=O)N([C@@H](C)CO)C[C@H]2C)cc1	0.8
C[C@@H]1CN([C@@H](C)CO)C(=O)c2cccc(NC(=O)c3ccc(-c4nccs4)cc3)c2O[C@H]1CN(C)C(=O)NC1CCCCC1	-0.2

The last two compounds of the section above are carried over, then new ones follow.
SMILES	A1 apoptosis 2
COc1ccc(CN(C)C[C@H]2Oc3ccc(NC(=O)NC(C)C)cc3C(=O)N([C@@H](C)CO)C[C@H]2C)cc1	0.8
C[C@@H]1CN([C@@H](C)CO)C(=O)c2cccc(NC(=O)c3ccc(-c4nccs4)cc3)c2O[C@H]1CN(C)C(=O)NC1CCCCC1	-0.2
Cc1noc(C)c1S(=O)(=O)Nc1cccc2c1O[C@H](CN(C)Cc1ccc3c(c1)OCO3)[C@H](C)CN([C@@H](C)CO)C2=O	-0.1
C[C@@H]1CCCCO[C@H](CN(C)S(=O)(=O)c2cccs2)[C@H](C)CN([C@H](C)CO)C(=O)c2cc(NC(=O)Nc3ccccc3)ccc2O1	-0.8
Cc1noc(C)c1NC(=O)N(C)C[C@@H]1Oc2ccc(NC(=O)CCN3CCOCC3)cc2CC(=O)N([C@H](C)CO)C[C@H]1C	-1.6
C[C@H](CO)N1C[C@H](C)[C@H](CN(C)C(=O)NC2CCCCC2)Oc2ccc(NS(=O)(=O)c3cn(C)cn3)cc2C1=O	-0.5
C[C@@H]1CCCCO[C@@H](CN(C)C(=O)Cc2ccccc2)[C@@H](C)CN([C@@H](C)CO)C(=O)c2cc(N(C)C)ccc2O1	-1.9
C[C@H]1CN([C@@H](C)CO)C(=O)Cc2cc(NC(=O)c3ccncc3)ccc2O[C@@H]1CN(C)Cc1ccc2c(c1)OCO2	0.2
O=C(N/N=C/c1ccccn1)c1ccccn1	-3.3
C[C@@H]1CCCCO[C@H](CN(C)C(=O)CCC(F)(F)F)[C@@H](C)CN([C@H](C)CO)C(=O)c2cc(NS(=O)(=O)c3cccs3)ccc2O1	0.5
C[C@@H]1CCCCO[C@H](CN(C)C(=O)Cc2ccccc2)[C@H](C)CN([C@@H](C)CO)C(=O)c2cc(NC(=O)NC3CCCCC3)ccc2O1	-0.1
C[C@@H]1CN([C@@H](C)CO)C(=O)c2cc(NC(=O)NC3CCCCC3)ccc2O[C@@H](C)CCCCO[C@@H]1CN(C)C(=O)c1ccncc1	0.7
C=CCOC(=O)[C@]12O[C@@]3(COC[C@H](c4ccccc4)N3C1=O)[C@H]1C(=O)N(c3ccccc3)C(=O)[C@H]12	-0.8
C[C@@H]1CN([C@@H](C)CO)C(=O)c2cccc(NC(=O)c3nc4ccccc4s3)c2O[C@@H]1CN(C)S(=O)(=O)c1ccc(Cl)cc1	-1.5
Cc1noc(C)c1NC(=O)Nc1ccc2c(c1)C(=O)N([C@H](C)CO)C[C@H](C)[C@@H](CN(C)CC1CC1)OCCCC[C@@H](C)O2	1.4
C[C@H](CO)N1C[C@H](C)[C@H](CN(C)Cc2ccccc2)OCCCC[C@H](C)Oc2ccc(NS(=O)(=O)c3ccccc3)cc2C1=O	0.0
C[C@H]1CN([C@@H](C)CO)C(=O)Cc2cc(NS(=O)(=O)c3ccc(Cl)cc3)ccc2O[C@@H]1CN(C)C(=O)Nc1ccc(C(F)(F)F)cc1	-1.6
C[C@H](CO)N1C[C@H](C)[C@@H](CN(C)S(=O)(=O)c2ccccc2)Oc2c(NC(=O)Nc3ccccc3)cccc2C1=O	-0.7
C[C@@H]1CN([C@@H](C)CO)C(=O)c2cc(NS(=O)(=O)c3ccc(Cl)cc3)ccc2O[C@@H]1CN(C)C(=O)Nc1ccc(C(F)(F)F)cc1	1.0
COc1ccc(S(=O)(=O)N(C)C[C@H]2Oc3c(NS(=O)(=O)c4ccccc4)cccc3C(=O)N([C@H](C)CO)C[C@@H]2C)cc1	-0.6
CC(C)NC(=O)Nc1cccc2c1O[C@@H](CN(C)Cc1ccc(Oc3ccccc3)cc1)[C@@H](C)CN([C@@H](C)CO)C2=O	-0.9
C[C@H]1CCCCO[C@H](CN(C)C(=O)Nc2ccc(C(F)(F)F)cc2)[C@@H](C)CN([C@@H](C)CO)C(=O)c2cc(NC(=O)Cc3ccccc3)ccc2O1	1.4
C[C@@H]1CN([C@H](C)CO)C(=O)c2cccc(NS(=O)(=O)c3ccc(Cl)cc3)c2O[C@H]1CN(C)Cc1ccc(C(=O)Nc2ccccc2N)cc1	0.1
C[C@@H]1CCCCO[C@H](CN(C)C(=O)Nc2cccc3ccccc23)[C@@H](C)CN([C@H](C)CO)C(=O)c2cc(NS(=O)(=O)c3ccc(Cl)cc3)ccc2O1	0.1
C[C@@H]1CN([C@@H](C)CO)C(=O)CCCn2cc(nn2)CO[C@@H]1CN(C)C(=O)Nc1cccc(Oc2ccccn2)c1	-0.1
C[C@H](CO)N1C[C@H](C)[C@H](CN(C)C(=O)Nc2ccccc2)Oc2ccc(NS(=O)(=O)c3cn(C)cn3)cc2CC1=O	1.1
C[C@H](CO)N1C[C@H](C)[C@@H](CN(C)Cc2ccc(Cl)c(Cl)c2)OCCCC[C@H](C)Oc2ccc(NC(=O)NC3CCCCC3)cc2C1=O	-0.5
O=C(NO)c1ccc(C(=O)N/N=C/c2cc(Br)cc([N+](=O)[O-])c2O)cc1	-4.2
COc1ccc(CN(C)C[C@@H]2Oc3c(NS(=O)(=O)c4ccc(OC)cc4)cccc3C(=O)N([C@@H](C)CO)C[C@@H]2C)cc1	-0.4
C[C@H]1CN([C@@H](C)CO)C(=O)Cc2cc(NC(=O)Nc3ccc(C(F)(F)F)cc3)ccc2O[C@@H]1CN(C)Cc1ccccc1	-1.9
CC(C)NC(=O)N(C)C[C@@H]1Oc2ccc(NC(=O)CCC(F)(F)F)cc2C(=O)N([C@@H](C)CO)C[C@@H]1C	-1.4
C[C@H]1CN([C@@H](C)CO)C(=O)CCCn2cc(nn2)CO[C@@H]1CN(C)Cc1ccc(Cl)c(Cl)c1	0.3
CCO[C@@H]1OC(C(=O)N2CCCC2)=C[C@H](C2CCCCC2)[C@H]1CCCO	-0.7
C[C@H](CO)N1C[C@H](C)[C@@H](CN(C)C(=O)Nc2ccc(C(F)(F)F)cc2)OCc2cnnn2CCCC1=O	0.0
C[C@H](CO)N1C[C@H](C)[C@H](CN(C)S(=O)(=O)c2ccc3ccccc3c2)OCc2cn(nn2)CCCC1=O	0.2

Of the compounds above, these have two or more sulfur atoms:
SMILES	A1 apoptosis 2
C[C@@H]1CN([C@@H](C)CO)C(=O)Cc2cc(NS(=O)(=O)c3ccccc3)ccc2O[C@H]1CN(C)S(=O)(=O)c1ccc(Cl)cc1	-0.3
C[C@H]1CN([C@@H](C)CO)C(=O)Cc2cc(NS(=O)(=O)c3ccc(F)cc3)ccc2O[C@H]1CN(C)S(=O)(=O)c1cn(C)cn1	-0.6
C[C@H]1CN([C@@H](C)CO)C(=O)c2cc(NS(C)(=O)=O)ccc2O[C@H]1CN(C)S(=O)(=O)c1cn(C)cn1	0.7
C[C@@H]1CCCCO[C@H](CN(C)S(=O)(=O)c2cccs2)[C@H](C)CN([C@H](C)CO)C(=O)c2cc(NC(=O)Nc3ccccc3)ccc2O1	-0.8
C[C@@H]1CCCCO[C@H](CN(C)C(=O)CCC(F)(F)F)[C@@H](C)CN([C@H](C)CO)C(=O)c2cc(NS(=O)(=O)c3cccs3)ccc2O1	0.5
C[C@@H]1CN([C@@H](C)CO)C(=O)c2cccc(NC(=O)c3nc4ccccc4s3)c2O[C@@H]1CN(C)S(=O)(=O)c1ccc(Cl)cc1	-1.5
COc1ccc(S(=O)(=O)N(C)C[C@H]2Oc3c(NS(=O)(=O)c4ccccc4)cccc3C(=O)N([C@H](C)CO)C[C@@H]2C)cc1	-0.6

Screening data as filed in PubChem BioAssay.
